PV pol inh: inhibitors of poliovirus RNA polymerase binding and polymerization; P03300; poliovirus polymerase elongation, fluorescence polarization; stronger effect = lower value; % elongation, % (compound at 16.7 µg/mL); hit rate 0.66% among 150,000; AID 588519; in the data active means % elongation below about 90%; further: some results filed as inactive read as strong as hits
Target sequence (P03300 1749-2209 limits assumed): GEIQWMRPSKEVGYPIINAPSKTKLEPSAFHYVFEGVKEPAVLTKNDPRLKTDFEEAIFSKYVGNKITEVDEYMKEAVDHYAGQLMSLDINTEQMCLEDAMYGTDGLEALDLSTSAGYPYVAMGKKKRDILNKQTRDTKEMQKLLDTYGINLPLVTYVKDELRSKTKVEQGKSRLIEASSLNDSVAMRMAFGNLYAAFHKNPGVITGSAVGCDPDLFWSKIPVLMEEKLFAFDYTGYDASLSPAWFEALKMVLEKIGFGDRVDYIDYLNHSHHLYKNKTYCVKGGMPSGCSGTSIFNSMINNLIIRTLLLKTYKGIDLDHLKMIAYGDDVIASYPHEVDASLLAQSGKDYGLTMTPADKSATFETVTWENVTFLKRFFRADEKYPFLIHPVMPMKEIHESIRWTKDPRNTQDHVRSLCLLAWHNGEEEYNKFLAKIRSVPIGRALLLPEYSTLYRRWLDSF
PV pol inh intensity: further read-out of PV pol inh, marked with its call; % elongation; measured here: total intensity read-out; formula for this scale not given here;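 total fluorescence in place of polarization; lower means less elongation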
Numbers without * were called inactive. Some of the compounds tested; the hit share may differ from the screen's.

For CCOC(=O)c1c(N)n(-c2ccc(Cl)c(Cl)c2)c2nc3ccccc3nc12 the results were PV pol inh 109 and PV pol inh intensity 113.
`CCN(CC)S(=O)(=O)c1nnc(NC(=O)c2ccc(C)cc2)s1` gave PV pol inh 102 and PV pol inh intensity 102.
Screening Cc1ccc(C)c(N2CCN(C(=O)c3cnc4c(-c5ccccc5)c(C)nn4c3C)CC2)c1 returned PV pol inh 113 and PV pol inh intensity 119.
Cc1ccc(C)c(NC(=O)c2cc(S(=O)(=O)NCCc3ccccc3)ccc2F)c1 was read as PV pol inh 106 and PV pol inh intensity 114.
Screening O=C(Nc1nnc(N2CCCC2)s1)Nc1cc(F)ccc1F returned PV pol inh 104 and PV pol inh intensity 106.
`COc1cccc(CNC(=O)c2ccc3c(c2)N(Cc2ccc(C(F)(F)F)cc2)C(=O)c2ccccc2S3)c1OC` gave PV pol inh 107 and PV pol inh intensity 108.
Screening COC(=O)C(NC(=O)CCc1c(C)nc2c(-c3ccccc3)c(C)nn2c1C)C(C)C (stereo not given) returned PV pol inh 106 and PV pol inh intensity 103.
CCCc1nnc(NC(=O)C(CC)Sc2nnc3c4ccccc4n(C)c3n2)s1 (stereo not given) was read as PV pol inh 106 and PV pol inh intensity 112.
`O=C(NCc1ccccc1)c1ccc(CNS(=O)(=O)c2ccc(Br)cc2)cc1` gave PV pol inh 103 and PV pol inh intensity 105.
For COc1ccc(-c2noc(C3CC(=O)N(c4cc(C)cc(C)c4)C3)n2)cc1 (stereo not given) the results were PV pol inh 102 and PV pol inh intensity 107.
For CCn1c(=O)c2sccc2n2c(CCC(=O)Nc3ccc(C(C)C)cc3)nnc12 the results were PV pol inh 104 and PV pol inh intensity 112.
For Cc1ccc(C)c(NC(=O)c2nnn(Cc3ccc(F)cc3Cl)c2N)c1 the results were PV pol inh 108 and PV pol inh intensity 109.
For CCOC(=O)c1cc(OC(=O)c2cccc(C)c2)n(-c2ccccc2)n1 the results were PV pol inh 105 and PV pol inh intensity 105.
`CCOc1ccc(-n2c(=O)c3c(C)c(C)sc3n(Cc3c(F)cccc3Cl)c2=O)cc1` gave PV pol inh 108 and PV pol inh intensity 113.
Cc1ccc(CCNC(=O)c2sc3ncccc3c2-n2c(C)ccc2C)cc1 was read as PV pol inh 106 and PV pol inh intensity 114.
For CCOC(=O)c1c(C)[nH]c(C)c1S(=O)(=O)N1CCCC(C(=O)Nc2cc(C)ccc2C)C1 (stereo not given) the results were PV pol inh 108 and PV pol inh intensity 108.
For Cc1ccc(NC(=O)C2CCN(S(=O)(=O)c3cccs3)CC2)cc1 the results were PV pol inh 104 and PV pol inh intensity 106.
Screening O=C(NCc1cccc(F)c1)c1ccc(CS(=O)c2ccccc2Cl)o1 (stereo not given) returned PV pol inh 110 and PV pol inh intensity 109.
Screening COc1cc(OC)c(NC(=O)c2c3c(nc4ccccc24)C(=O)N(C2CCCCC2)C3)cc1Cl returned PV pol inh 108 and PV pol inh intensity 116.
`Cc1ccc(Nc2sc(C(=O)c3ccccc3)c(N)c2C(=O)NC(C)C)cc1` gave PV pol inh 106 and PV pol inh intensity 110.
Screening Cc1cccc(NC(=O)CSc2nc(=O)n(Cc3cccnc3)c3c2CCC3)c1 returned PV pol inh 106 and PV pol inh intensity 101.
Screening CCOC(=O)c1c(NC(C)=O)c2c3c(sc2n1Cc1ccc(Cl)cc1)CCCC3 returned PV pol inh 109 and PV pol inh intensity 113.
For O=S(=O)(c1ccc(-c2cnc(C3CC3)o2)cc1)N1CCN(c2ccccc2F)CC1 the results were PV pol inh 103 and PV pol inh intensity 111.
COc1ccc(CNC(=O)CCc2nc(-c3ccc(OC)cc3)no2)cc1 was read as PV pol inh 113 and PV pol inh intensity 118.
Screening Cc1c2cnn(CC(=O)N3CCN(c4ccc(F)cc4)CC3)c(=O)c2c(C)n1Cc1ccc(F)cc1 returned PV pol inh 106 and PV pol inh intensity 104.
Screening Cc1oc2c(c(C)cc3oc(=O)c(CC(=O)NCCc4ccccc4)c(C)c32)c1C returned PV pol inh 98 and PV pol inh intensity 91.
CCc1c(C)sc2c1CCN(Cc1ccccc1C#N)C2c1ccccc1 (stereo not given) was read as PV pol inh 114 and PV pol inh intensity 107.
For O=C1CC(c2ccccc2)Cc2[nH]c(=O)c(C(=O)Nc3ccc(OC(F)(F)F)cc3)cc21 (stereo not given) the results were PV pol inh 109 and PV pol inh intensity 109.
`CNS(=O)(=O)c1cn(CC(=O)N2CCN(c3ccc(C)cc3C)CC2)cc1S(=O)(=O)NC` gave PV pol inh 107 and PV pol inh intensity 111.
Screening CCCC1=Nc2cc(C(=O)NCCOC)ccc2Sc2ccccc21 returned PV pol inh 113 and PV pol inh intensity 108.
For Cc1cccc(NC(=O)C(=O)NCCc2csc(-c3ccc(F)cc3)n2)c1C the results were PV pol inh 109 and PV pol inh intensity 110.
`COc1ccc(N2CC(NC(=O)c3cc4ccccc4o3)CC2=O)cc1` (stereo not given) gave PV pol inh 108 and PV pol inh intensity 105.
CCOc1ccccc1CN1CCc2nc(Nc3ccccc3)ncc2C1 was read as PV pol inh 99 and PV pol inh intensity 104.
For CCOC(=O)c1ccc(N2C(=O)Cc3cc(OCC)c(OCC)cc3C2c2ccccc2)cc1 (stereo not given) the results were PV pol inh 112 and PV pol inh intensity 111.
For COc1ccc(-c2noc(-c3ccc(NCc4ccccc4OC)c([N+](=O)[O-])c3)n2)cc1 the results were PV pol inh 112 and PV pol inh intensity 112.
Screening CCOC(=O)c1ccc(NC(=O)c2cnc3c(-c4ccc(F)cc4)c(C)nn3c2C)cc1 returned PV pol inh 51* and PV pol inh intensity 57*.
Screening Cc1ccc(-c2cc(C(=O)N3CCN(S(=O)(=O)c4ccc(Br)cc4)CC3)[nH]n2)c(C)c1 returned PV pol inh 109 and PV pol inh intensity 111.
`Cc1cccc(N2CCN(S(=O)(=O)c3ccc(F)c(C(=O)Nc4cccc(Cl)c4C)c3)CC2C)c1` (stereo not given) gave PV pol inh 111 and PV pol inh intensity 112.
For CCC(=O)Oc1c(Sc2ccc(Cl)cc2)c(C)nn1-c1ccccc1 the results were PV pol inh 102 and PV pol inh intensity 99.
Screening O=c1[nH]c(SCc2cccc(Cl)c2)nc2c1CCC2 returned PV pol inh 113 and PV pol inh intensity 118.
`COc1ccc(-c2noc(-c3nnn(-c4ccc(C(C)C)cc4)c3C)n2)cc1OC` gave PV pol inh 102 and PV pol inh intensity 107.
`COc1ccc(OC)c(CNC(=O)CCCn2c(=O)c3cccn3c3cccnc32)c1` gave PV pol inh 111 and PV pol inh intensity 111.
`Cc1ccccc1NC(=O)Cn1cc(C(=O)c2cccs2)c2ccccc21` gave PV pol inh 105 and PV pol inh intensity 105.
COc1cccc(CN2CCc3nc(N4CCN(C)CC4)ncc3C2)c1 was read as PV pol inh 107 and PV pol inh intensity 111.
Screening CCOc1ccccc1NC(=O)Cn1c(=O)n(Cc2ccccc2)c(=O)c2c(C)c(C(=O)N(C)C)sc21 returned PV pol inh 107 and PV pol inh intensity 114.
COC(=O)c1ccn(-c2nc(-c3ccc(Cl)cc3)cc(C(F)(F)F)n2)n1 was read as PV pol inh 105 and PV pol inh intensity 103.
Screening CCCSC1=NC2(CCN(C(=O)NC3CCCCC3)CC2)N=C1c1ccc(OC)cc1 returned PV pol inh 108 and PV pol inh intensity 105.
COc1ccc(C(=O)Nc2ccc(-c3nnc4n3CCCCC4)cc2)cc1 was read as PV pol inh 98 and PV pol inh intensity 105.
Screening CC(C)(C)c1ccc(C(=O)Nc2ccc3nc(SCC(=O)N4CCCC4)sc3c2)cc1 returned PV pol inh 110 and PV pol inh intensity 113.
For CC(Nc1oc(-c2ccc(COc3ccccc3)o2)nc1C#N)c1ccccc1 (stereo not given) the results were PV pol inh 110 and PV pol inh intensity 114.
CCCCc1ccc(NC(=O)c2ccc3c(c2)CCN3S(=O)(=O)c2ccccc2)cc1 was read as PV pol inh 105 and PV pol inh intensity 108.
For CCc1nn(CC(=O)NC2CC2)c(=O)c2cc3c(OC)cccc3n12 the results were PV pol inh 102 and PV pol inh intensity 106.
For CCOC(=O)c1c(NC(=O)/C=C/c2ccc(OCC)cc2)sc(C(C)=O)c1C the results were PV pol inh 104 and PV pol inh intensity 105.
Cc1cc(F)ccc1NC(=O)CCS(=O)(=O)c1cc2c3c(c1)CCN3C(=O)CC2 was read as PV pol inh 108 and PV pol inh intensity 114.
Screening CSc1ccc(CN2CCN(C(=O)COc3cccc(C)c3)CC2)cc1 returned PV pol inh 102 and PV pol inh intensity 97.
`COc1ccc(NC(=O)CN2CCCN(Cc3ccccc3)S2(=O)=O)cc1` gave PV pol inh 104 and PV pol inh intensity 109.
`Cc1ccc(CNC(=O)CCc2cn(C)c3ccccc23)cc1` gave PV pol inh 112 and PV pol inh intensity 114.
For CCOC(=O)N1CCc2c(sc(NCc3cccc(F)c3)c2C(=O)Nc2ccc(OCC)cc2)C1 the results were PV pol inh 102 and PV pol inh intensity 109.
Cn1nnnc1SCCCNCc1cccc(OCc2ccc(Cl)cc2)c1 was read as PV pol inh 108 and PV pol inh intensity 110.
CCCCCNc1nc2c(-c3ccccc3)nnn2c2ccccc12 was read as PV pol inh 102 and PV pol inh intensity 105.
Screening COc1ccc(CCNC(=O)CCCn2c(=O)c3ccccc3n(Cc3ccc(C)cc3)c2=O)cc1OC returned PV pol inh 108 and PV pol inh intensity 111.
For COc1cc(C(=O)N2CCN(c3ccc(Nc4ccc(C)cc4)nn3)CC2)cc(OC)c1OC the results were PV pol inh 105 and PV pol inh intensity 96.
For COc1cc(NC(=O)c2oc3c(c2C)-c2nn(Cc4cccc(Cl)c4)cc2CC3)cc(OC)c1 the results were PV pol inh 100 and PV pol inh intensity 100.
`COc1cccc(N2CCN(c3ncnc4c3nc3n4CCCCC3)CC2)c1` gave PV pol inh 102 and PV pol inh intensity 104.
Cc1cc(=O)[nH]c2nnc(SCc3ccc(Cl)cc3Cl)n12 was read as PV pol inh 105 and PV pol inh intensity 97.
CCN(CC)c1ccc(NC(=O)CCS(=O)(=O)c2ccc3c(c2)oc(=O)n3C)c(C)c1 was read as PV pol inh 104 and PV pol inh intensity 109.
COc1cccc(N2CCN(C(=O)Cn3ncc4c5ccccc5n(C)c4c3=O)CC2)c1 was read as PV pol inh 106 and PV pol inh intensity 113.
`Cn1nnnc1SCCCNCc1ccc(-c2ccc(Br)cc2)o1` gave PV pol inh 98 and PV pol inh intensity 98.
`Cc1ccc(Cl)cc1NC(=O)Cn1c(=O)n(Cc2ccccc2)c(=O)c2oc3ccccc3c21` gave PV pol inh 111 and PV pol inh intensity 112.
CCc1ccc(-n2nc(C)c3c(C)cc(=O)n(CC(=O)N4CCCc5ccccc54)c32)cc1 was read as PV pol inh 99 and PV pol inh intensity 96.
For Cc1ccc(Cn2c(=O)n(Cc3ccco3)c(=O)c3oc4ccccc4c32)cc1 the results were PV pol inh 113 and PV pol inh intensity 104.
Cc1ccc(S(=O)(=O)c2nc(S(=O)(=O)c3ccccc3)sc2NCCCOC(C)C)cc1 was read as PV pol inh 108 and PV pol inh intensity 112.
`CCc1ccc(-n2nc(C)c3c(C(=O)Nc4ccc(Cl)cc4)cc(C)nc32)cc1` gave PV pol inh 103 and PV pol inh intensity 111.
CCCCn1c(CNC(=O)c2ccc(OC)cc2)nnc1SCC(=O)Nc1ccc(OC)cc1 was read as PV pol inh 99 and PV pol inh intensity 106.
For CSc1ncc(C(=O)NCc2ccccc2)c(-c2ccccc2)n1 the results were PV pol inh 101 and PV pol inh intensity 110.
Screening CCCCN(CCCNC(=O)c1cc(Nc2ccc(OC)c(OC)c2)nc2ccccc12)Cc1ccccc1 returned PV pol inh 114 and PV pol inh intensity 115.
`Cc1ccc(/C=C/c2onc(C)c2S(=O)(=O)N2CCC(C(=O)Nc3ccccc3C(F)(F)F)CC2)cc1` gave PV pol inh 103 and PV pol inh intensity 112.
Screening CCCCOc1ccc(C2=NC(c3ccccc3)=Nc3ccc(OC)cc3N2)cc1 returned PV pol inh 106 and PV pol inh intensity 105.
CC(C)CNS(=O)(=O)c1ccc(N2CCCCS2(=O)=O)cc1 was read as PV pol inh 109 and PV pol inh intensity 112.
COc1ccc(NC(=O)c2c(NCc3ccc(C)o3)sc3c2CCC(C)C3)c(OC)c1 (stereo not given) was read as PV pol inh 106 and PV pol inh intensity 114.

For reference, some entries already given.
For CCOC(=O)c1c(N)n(-c2ccc(Cl)c(Cl)c2)c2nc3ccccc3nc12 the results were PV pol inh 109 and PV pol inh intensity 113.
`CCN(CC)S(=O)(=O)c1nnc(NC(=O)c2ccc(C)cc2)s1` gave PV pol inh 102 and PV pol inh intensity 102.
Screening Cc1ccc(C)c(N2CCN(C(=O)c3cnc4c(-c5ccccc5)c(C)nn4c3C)CC2)c1 returned PV pol inh 113 and PV pol inh intensity 119.
Cc1ccc(C)c(NC(=O)c2cc(S(=O)(=O)NCCc3ccccc3)ccc2F)c1 was read as PV pol inh 106 and PV pol inh intensity 114.
Screening O=C(Nc1nnc(N2CCCC2)s1)Nc1cc(F)ccc1F returned PV pol inh 104 and PV pol inh intensity 106.
`COc1cccc(CNC(=O)c2ccc3c(c2)N(Cc2ccc(C(F)(F)F)cc2)C(=O)c2ccccc2S3)c1OC` gave PV pol inh 107 and PV pol inh intensity 108.
Screening COC(=O)C(NC(=O)CCc1c(C)nc2c(-c3ccccc3)c(C)nn2c1C)C(C)C (stereo not given) returned PV pol inh 106 and PV pol inh intensity 103.
CCCc1nnc(NC(=O)C(CC)Sc2nnc3c4ccccc4n(C)c3n2)s1 (stereo not given) was read as PV pol inh 106 and PV pol inh intensity 112.
`O=C(NCc1ccccc1)c1ccc(CNS(=O)(=O)c2ccc(Br)cc2)cc1` gave PV pol inh 103 and PV pol inh intensity 105.
For COc1ccc(-c2noc(C3CC(=O)N(c4cc(C)cc(C)c4)C3)n2)cc1 (stereo not given) the results were PV pol inh 102 and PV pol inh intensity 107.
For CCn1c(=O)c2sccc2n2c(CCC(=O)Nc3ccc(C(C)C)cc3)nnc12 the results were PV pol inh 104 and PV pol inh intensity 112.
